Screens deposited in PubChem by several laboratories.
E coli growth = E. coli growth inhibition, primary screen, OD600 | OD600 absorbance (test concentration not listed) | Escherichia coli growth, 23 h; stronger effect = lower value | actives 0.21% (n = 330,000);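 active means OD600 absorbance below the run mean of sample wells minus 3.6 SD, in any replicate, cut at about 0.56 in these data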;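 further: stock transfer was 300 nL into about 60 µL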
rRNA inh HTS = reduced GFP signal of wild-type E. coli, primary screen, bacterial rRNA inhibitor project, GFP/RFP fluorescence, OD600, single point; E. coli WT GFP vs humanized-ribosome RFP mutants, 24 h; stronger effect = lower value; DMSO median 0, no signal -100; GFP signal change (wild-type ribosome), % (no concentration beside the values); actives 1.6% (n = 350,000);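 active means significant combined selectivity score with lowered wild-type GFP, culture density cut under 30%, mutant RFP and density less affected; inactive means any of these conditions unmet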; further: one replicate is shown; some compounds called inactive have numbers as strong as hits
FGF22 binding = binders of human FGF22 protein, primary screen, FGF22 synaptogenesis inhibitor project, biophysical, thermal shift, single point; recombinant FGF22 thermal shift, SYPRO orange fluorescence; percent of sucrose octasulfate shift, DMSO zero; calls only at 9.99 µM; actives 1.5% (n = 340,000); Fibroblast growth factor 22 (Homo sapiens), Q9HCT0;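 active means melting point raised past a set limit in the mean and every replicate; three in four hits are not shown here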
Target sequence (Q9HCT0 whole entry, looked up): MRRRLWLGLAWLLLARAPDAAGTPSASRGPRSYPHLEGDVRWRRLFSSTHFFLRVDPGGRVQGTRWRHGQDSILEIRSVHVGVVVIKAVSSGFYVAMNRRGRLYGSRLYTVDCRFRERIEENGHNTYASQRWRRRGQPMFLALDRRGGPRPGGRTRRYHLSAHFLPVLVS
AF4-AF9 inh = inhibitors of AF4 peptide binding to AF9, primary screen, biochemical, AlphaScreen, biotin-AF4 peptide, FLAG-AF9, single point; inhibition, % at 10 µM; actives 0.47% (n = 350,000); AID 651704, 2012;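 active means every replicate reaching a set inhibition limit, whatever the replicate mean, cut at about 25% in these data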;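 further: 0% = plate neutral control median and 100% = total signal loss; the record names both 10 and 1 µM as test concentration; the first replicate is given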
Target sequence (P42568 whole entry, looked up): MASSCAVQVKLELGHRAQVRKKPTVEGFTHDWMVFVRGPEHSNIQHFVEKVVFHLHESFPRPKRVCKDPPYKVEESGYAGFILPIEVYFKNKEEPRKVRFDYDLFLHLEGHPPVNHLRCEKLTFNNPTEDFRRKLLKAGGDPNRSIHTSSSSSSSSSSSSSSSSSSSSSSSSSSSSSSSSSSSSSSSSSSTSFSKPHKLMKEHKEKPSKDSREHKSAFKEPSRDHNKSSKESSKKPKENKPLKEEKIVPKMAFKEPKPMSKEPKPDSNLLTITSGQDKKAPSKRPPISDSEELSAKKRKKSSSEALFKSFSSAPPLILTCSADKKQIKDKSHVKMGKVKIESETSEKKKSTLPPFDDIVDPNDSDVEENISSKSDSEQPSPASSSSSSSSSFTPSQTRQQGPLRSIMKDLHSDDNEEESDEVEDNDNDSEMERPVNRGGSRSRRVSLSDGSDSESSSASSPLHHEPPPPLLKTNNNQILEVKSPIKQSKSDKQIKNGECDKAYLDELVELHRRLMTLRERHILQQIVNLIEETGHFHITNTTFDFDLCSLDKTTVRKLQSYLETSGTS
Vif TR-FRET = inhibitors of Vif binding to APOBEC3G peptide, primary screen, biochemical, TR-FRET, GST-Vif 1-94, biotin-A3G peptide, dose response retest (AID 1117319); Virion infectivity factor (Human immunodeficiency virus type 1 group M subtype B (isolate …; TR-FRET GST-Vif / biotin-A3G peptide binding; higher % means a stronger effect; test concentration not given here; strong numbers were not always called active; one-dose inhibition, %; IC50 in µM for titrated hits; actives 0.57% (n = 260,000);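 active means above the screen mean plus three standard deviations and confirmed in dose response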;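 further: Vif residues 1-94 fused to GST binding biotinylated APOBEC3G peptide 110-148; 0% = full assay without inhibitor and 100% = GST in place of GST-Vif; retest series ran down from 100 µM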
ALR H2O2 inh = inhibitors of human ALR sulfhydryl oxidase, primary screen, biochemical, H2O2 detection, HRP-luminol luminescence, single point; FAD-linked sulfhydryl oxidase ALR (Homo sapiens), P55789; purified ALR, DTT oxidation; inhibition, % (no concentration beside the values); actives 3.8% (n = 290,000);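 active means mean and each replicate at 75% or more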;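 further: stock transfer was 7.5 nL into about 7.5 µL; 0% = neutral wells and 100% = wells with inactivated enzyme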
Target sequence (P55789 whole entry, looked up): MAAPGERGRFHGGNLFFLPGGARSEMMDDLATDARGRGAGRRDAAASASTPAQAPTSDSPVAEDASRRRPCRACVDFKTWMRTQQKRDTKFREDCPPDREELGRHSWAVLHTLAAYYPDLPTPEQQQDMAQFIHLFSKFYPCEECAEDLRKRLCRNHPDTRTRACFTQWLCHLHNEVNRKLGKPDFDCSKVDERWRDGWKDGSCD
HNF4A DNA FP = change in binding of human HNF4A to DNA, primary screen, biochemical, fluorescence polarization, FITC-DNA; 1 h; activity change, % at 10 µM; actives 0.3% (n = 360,000); in the data active means activity change above about 30%, passing the limit was not always enough;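 further: controls were the assay level and a saturating level of protein; the project sought stronger binding though the title names inhibitors; some compounds called inactive have numbers as strong as hits; positive values seem to mean higher polarization but the record does not say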
rRNA inh HTS OD600 = also measured in rRNA inh HTS; calls as there; OD600 change, %; measured here: OD600 growth;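 optical density of the mix in the first replicate; 0 = DMSO median and -100 = no signal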
rRNA inh HTS RFP = second read-out of rRNA inh HTS, no call of its own (marks repeat the call); RFP signal change, %; measured here: RFP humanized mutant strains;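 first replicate; 0 = DMSO median and -100 = no signal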
An asterisk follows results filed as active; i = inactive; . = no result given. The list is partial; count on the stated rates, not on these rows.

cpd | Compound | HNF4A DNA FP | Vif TR-FRET | E coli growth | AF4-AF9 inh | rRNA inh HTS OD600 | rRNA inh HTS RFP | ALR H2O2 inh | FGF22 binding | rRNA inh HTS
1 | CCOc1ccc(N2C(=O)C(c3ccccc3)=C(c3nc4ccccc4s3)C2NC(C)=O)cc1 (stereo not drawn) | 0.3 | -4% | 0.68 | . | . | . | -3 | . | .
2 | CN1CCCN(Cc2ccc(Cl)cc2Cl)CC1 | 1.1 | 7% | 0.65 | 3.5 | 2 | -3.8 | -5 | i | 10
3 | CCC(=O)N(C)C[C@@H]1Oc2cc(C#Cc3cccnc3)ccc2S(=O)(=O)N([C@H](C)CO)C[C@@H]1C | . | . | . | -1.4 | -13 | -1.0 | . | i | -3
4 | COc1ccccc1CNC(=S)Nc1cc(C)ccc1C | 0.8 | . | 0.71 | 2.6 | -33 | -3.0 | 1 | i | -32
5 | N#Cc1cccc(NC(=O)CSc2sc3c(O)cc(=O)[nH]c3c2C#N)c1 | -27 | . | 0.7 | -0.5 | 14 | -0.2 | 99* | . | 9
6 | CC(C)CC(NC(=O)/C(=C/c1ccco1)NC(=O)c1ccc(Br)o1)C(=O)O (stereo not drawn) | -7.8 | 93µM* | 0.69 | -2.9 | 6 | 4.1 | 4 | i | 4
7 | CC(C)(C)c1ccc(C2=CC(c3ccccc3F)n3ncnc3N2)cc1 (stereo not drawn) | 3.0 | . | 0.7 | 2.8 | -11 | -0.7 | 6 | i | -4
8 | CC(=O)N(C)C[C@H]1[C@@H](c2ccc(-c3ccccc3F)cc2)[C@@H](CO)N1C(C)=O | . | . | . | 0.8 | -3 | -0.7 | . | i | 3
9 | O=S(=O)(NCCc1nnc2ccc(SCc3cccnc3)nn12)c1ccccc1 | -0.7 | -3% | 0.66 | 0.4 | 15 | 1.6 | 3 | i | 12
10 | O=S(=O)(Cc1ccccc1)N1CCCCN2[C@H](C1)[C@H](c1ccc(-c3cccnc3)cc1)[C@@H]2CO | . | . | . | 8.0 | -4 | 5.0 | . | i | -2
11 | C[C@H]1CN([C@@H](C)CO)C(=O)Cc2cc(NC(=O)C3CCCCC3)ccc2O[C@H]1CN(C)Cc1ccc(C(=O)O)cc1 | . | . | . | -5.6 | 8 | 0.4 | . | i | 2
12 | Cc1ncc([N+](=O)[O-])n1CCOC(=O)NC(NCc1ccccc1)C(Cl)(Cl)Cl (stereo not drawn) | 0.7 | -5% | 0.76 | . | . | . | -16 | . | .
13 | COC(=O)C1=NN[C@H](C(=O)OC)[C@H]1c1ccccc1 | 1.5 | -3% | 0.74 | . | . | . | 0 | . | .
14 | COc1cc(NC(=O)c2cc(-c3cccc(O)c3)on2)cc(OC)c1OC | -1.8 | 2% | 0.8 | -2.0 | 5 | -1.9 | -3 | i | 1
15 | Cc1cc(C)c(Nc2n[nH]c(=S)s2)cc1C | -1.2 | -7% | . | -0.6 | -2 | 1.1 | . | i | -8
16 | Cc1n[nH]c(=S)n1/N=C/c1ccc(OCc2ccc(Cl)cc2Cl)cc1 | 2.8 | 1% | . | . | . | . | 0 | . | .

As a working copy, part of the list above:
cpd | Compound | HNF4A DNA FP | Vif TR-FRET | E coli growth | AF4-AF9 inh | rRNA inh HTS OD600 | rRNA inh HTS RFP | ALR H2O2 inh | FGF22 binding | rRNA inh HTS
11 | C[C@H]1CN([C@@H](C)CO)C(=O)Cc2cc(NC(=O)C3CCCCC3)ccc2O[C@H]1CN(C)Cc1ccc(C(=O)O)cc1 | . | . | . | -5.6 | 8 | 0.4 | . | i | 2
12 | Cc1ncc([N+](=O)[O-])n1CCOC(=O)NC(NCc1ccccc1)C(Cl)(Cl)Cl (stereo not drawn) | 0.7 | -5% | 0.76 | . | . | . | -16 | . | .
13 | COC(=O)C1=NN[C@H](C(=O)OC)[C@H]1c1ccccc1 | 1.5 | -3% | 0.74 | . | . | . | 0 | . | .
14 | COc1cc(NC(=O)c2cc(-c3cccc(O)c3)on2)cc(OC)c1OC | -1.8 | 2% | 0.8 | -2.0 | 5 | -1.9 | -3 | i | 1
15 | Cc1cc(C)c(Nc2n[nH]c(=S)s2)cc1C | -1.2 | -7% | . | -0.6 | -2 | 1.1 | . | i | -8
16 | Cc1n[nH]c(=S)n1/N=C/c1ccc(OCc2ccc(Cl)cc2Cl)cc1 | 2.8 | 1% | . | . | . | . | 0 | . | .

Remaining list, next part:
cpd | Compound | HNF4A DNA FP | Vif TR-FRET | E coli growth | AF4-AF9 inh | rRNA inh HTS OD600 | rRNA inh HTS RFP | ALR H2O2 inh | FGF22 binding | rRNA inh HTS
17 | CSCCC(NC(=O)c1ccccc1Cl)C(=O)N(C)CC(=O)Nc1ccc(N2CCOCC2)cc1 (stereo not drawn) | 2.4 | -2% | 0.64 | -1.4 | 2 | -1.6 | 60 | i | 3
18 | CC1(C)CC(=O)C2=C(C1)OC(N)=C([N+](=O)[O-])C2c1ccc(F)cc1 (stereo not drawn) | 2.4 | 0% | 0.66 | -0.3 | 9 | 2.8 | 3 | i | 7
19 | Cc1c(C(=O)O)oc2c1C(=O)CC(C)(C)C2 | -5.5 | -3% | 0.7 | -1.7 | 4 | -5.2 | -11 | . | 7
20 | Cc1ccc(S(=O)(=O)NC(C)CCc2ccccc2)cc1 (stereo not drawn) | 2.6 | 1% | 0.72 | . | . | . | -6 | . | .
21 | O=C(NC1CC2CCC1C2)C1CCN(S(=O)(=O)c2ccc(-c3nn[nH]n3)cc2)CC1 (stereo not drawn) | 2.8 | 10% | 0.71 | . | . | . | 30 | . | .
22 | C[C@@H]1CCCCO[C@H](CN(C)S(=O)(=O)c2ccccc2)[C@H](C)CN([C@H](C)CO)C(=O)c2cc(NS(=O)(=O)c3ccc(Cl)cc3)ccc2O1 | . | . | . | 1.5 | -2 | 2.5 | . | i | -2
23 | CCc1nc2ccc(C(=O)NC3CCN(C)CC3)cn2c1N(C)CCC(C)C | 1.3 | . | . | 4.1 | -3 | -2.8 | . | i | 4
24 | COC(=O)[C@@]1(Cc2ccc(F)cc2)[C@H]2c3cc(C(=O)N4CCCC4)n(Cc4ccc(OC(F)(F)F)cc4)c3C[C@H]2CN1C(=O)c1ccccc1 | 0.2 | . | . | 1.6 | 8 | 4.8 | . | i | 15
25 | Cc1ccc(Cl)c(NC(=O)CSc2cccc[n+]2[O-])c1Cl | -0.4 | -2% | 0.68 | -2.4 | -12 | -2.5 | . | i | -11
26 | c1ccc2cc(N3CCCCC3)ccc2c1 | 2.0 | -2% | 0.66 | -4.8 | 15 | 7.6 | . | i | 8
27 | O=C1CN(C(=O)COC(=O)c2ccco2)c2ccccc2N1 | 2.4 | -9% | 0.65 | -1.7 | 8 | -2.3 | . | i | 5
28 | Cc1ccc(S(=O)(=O)N/N=C/c2cccn2-c2ccc(Cl)cc2)cc1 | -0.1 | -1% | . | . | . | . | 32 | . | .
29 | COc1ccc(CCNC(=O)C2CCN(S(=O)(=O)c3ccc(OC)c(OC)c3)CC2)cc1 | -7.2 | 0% | 0.7 | . | . | . | 5 | . | .
30 | O=C(Cn1c(=O)c2cccn2c2ccccc21)NCc1cccc(F)c1 | 0.0 | 7% | 0.69 | 1.9 | -2 | 2.6 | -5 | i | 3
31 | COc1nc2ccc(C)cc2cc1-c1noc(-c2cccnc2)n1 | 1.9 | -9% | 0.77 | . | . | . | -5 | . | .
32 | C[C@@H]1CN([C@H](C)CO)C(=O)Cc2cc(NS(C)(=O)=O)ccc2O[C@@H]1CN(C)C(=O)Nc1ccc(F)cc1 | . | . | . | -2.9 | -7 | 0.2 | . | i | -2
33 | COc1ccc(Nc2ncc3c(n2)CC(c2ccc(C)cc2)CC3=O)cc1 (stereo not drawn) | -0.8 | 9% | 0.69 | . | . | . | -15 | . | .
34 | N#Cc1c(N)[nH]c(=S)c(C#N)c1-c1ccccc1 | 1.1 | 17% | 0.74 | . | . | . | 57 | . | .
35 | COc1ccc(CCNC(=O)CSc2nnnn2C)cc1OC | -1.4 | 27% | 0.66 | -4.1 | 17 | 1.3 | -4 | i | 20
36 | CCOC(=O)c1sc(=NC(=O)c2ccc(S(=O)(=O)N3CC(C)OC(C)C3)cc2)n(C)c1C (stereo not drawn) | 0.3 | -7% | 0.64 | . | . | . | 2 | . | .
37 | CN1CCc2c(sc(NC(=O)c3ccc(C(=O)c4ccccc4)cc3)c2C(N)=O)C1 | 36 | . | 0.69 | 2.7 | 7 | 1.0 | 13 | i | 1
38 | C[C@@H]1CN([C@@H](C)CO)C(=O)Cc2cc(NC(=O)Cc3ccccc3)ccc2O[C@@H]1CN(C)C | . | . | . | -1.0 | 5 | -1.1 | . | i | 2
39 | N#Cc1ccc(-c2ccc3c(c2)[C@H]2[C@H](CCN2S(=O)(=O)c2cccc(F)c2)[C@@H](CO)N3)cc1 | . | . | . | 2.3 | -20 | 14 | . | i | -7
40 | CNC(=O)CSc1nnc(-c2ccccn2)n1Cc1ccco1 | 0.1 | -6% | 0.71 | -9.7 | 9 | -3.0 | -10 | i | 16
41 | COc1ccc(CN(C)C[C@H]2OCCCC[C@@H](C)Oc3ccc(NS(=O)(=O)c4cn(C)cn4)cc3C(=O)N([C@@H](C)CO)C[C@@H]2C)cc1 | . | . | . | -4.6 | 5 | 1.4 | . | i | 6
42 | Cc1nc2ccccc2nc1SCC(=O)N1CCC(C)CC1 | 1.9 | -16% | 0.71 | . | . | . | -10 | . | .
43 | COc1cc2nc(N(CCN(C)C)C(=O)c3ccc4ccccc4c3)sc2cc1OC | -0.8 | -4% | 0.67 | . | . | . | -4 | . | .
44 | CC(=O)OC(C(=O)NC1CCCCC1)c1ccc(Cl)cc1 (stereo not drawn) | -4.9 | -7% | 0.74 | . | . | . | -4 | . | .
45 | O=C(CSc1nnc(-c2cnccn2)n1Cc1ccco1)c1ccc(Cl)cc1 | -2.0 | 7% | 0.71 | . | . | . | 0 | . | .
46 | COc1ccccc1Cc1c(-c2cccc(Cl)c2)nc2ccc(Cl)cn12 | 14 | . | . | 2.7 | -8 | -6.2 | . | i | -1
47 | O=C(Nc1cc(S(=O)(=O)N2CCOCC2)ccc1N1CCOCC1)c1ccc([N+](=O)[O-])s1 | 2.2 | . | 0.68 | 5.5 | -7.0* | 4.3* | -47 | i | -18*
48 | CC(Oc1ccc(Cl)cc1Cl)C(=O)NC(=S)N1CCc2ccccc21 (stereo not drawn) | 3.6 | . | 0.73 | -0.1 | . | . | -13 | i | .
49 | COc1cccc(/C=C/C(=O)Nc2cc(S(=O)(=O)N3CCOCC3)ccc2OC)c1 | -1.0 | -5% | 0.7 | -12 | 1 | -2.3 | . | i | 2
50 | COCC(=O)N1CC2(C1)[C@H](c1ccc(-c3ccc(F)cc3)cc1)[C@H](CO)N2C(=O)C1CC1 | . | . | . | 1.8 | 1 | 1.0 | . | i | 0
51 | N#CCN1C(=S)N=C(Nc2cccc(Cl)c2)C12CCCCC2 | -2.6 | 1% | 0.73 | . | . | . | -2 | . | .
52 | CC1CCCN(C(=O)c2ccc3c(=O)n(Cc4ccc5c(c4)OCO5)c(=S)[nH]c3c2)C1 (stereo not drawn) | 2.2 | 22% | 0.76 | . | . | . | 2 | . | .
